NPYLR7 ag = activates Aedes aegypti NPYLR7 receptor; activation, % at 10 µM; 0.15% of 270,000 active; AID 1259423; HEK293T NPYLR7/Galpha15, GCaMP6s calcium fluorescence; in the data active = activation above about 40%;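 note: 0% = vehicle and 100% = reference agonist at the receptor; some compounds past the cut are filed as inactive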
NPYLR7 ag max-min = also measured in NPYLR7 ag; calls as there; activation, %; measured here: Max-Min RFU normalised activation; some inactives read as strong as hits;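 span of the calcium signal over five minutes; 0% = vehicle and 100% = native peptide agonist; compound fluorescence can raise it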
Starred values were filed as active, the others as inactive; & = joins results of further samples. Not all compounds are listed, so the mix of outcomes need not match the whole.

| SMILES | NPYLR7 ag | NPYLR7 ag max-min |
| --- | --- | --- |
| Cc1nc(-c2ccc(CNC(=O)CCc3c(C)[nH]c(=O)c(C#N)c3C)o2)cs1 | 9 | 4 |
| CSCCNC(=O)CC1C(=O)NCCN1Cc1ccc(F)cc1Cl (centres undefined) | 2 | 0 |
| CC(=O)c1cc(CC(=O)NCc2cc(=O)[nH]c(C(C)(C)C)n2)cs1 | 12 | -2 |
| Cn1c(Nc2ccc(NCC3CCCC3)cc2)c(C#N)c(=O)n(C)c1=O | 1 | 1 |
| O=c1[nH]c(Cn2nnc(-c3ccc(F)cc3)n2)nc2ccsc12 | 7 | 6 |
| NC(=O)c1ccsc1NC(=O)c1ccccc1OCc1ccccc1 | 0 | -1 |
| O=C(NC1CC1)C(C1CCCC1)N1CCN(C(=O)c2cccc(F)c2)CC1 (centres undefined) | -3 | -2 |
| N#CC(=Cc1c[nH]c2ccccc12)C(N)=S | 18 | 11 |
| COCCn1cc(C(=O)N2CCN(C(=O)C3CCCCC3)CC2)c2nn(-c3ccccc3)c(=O)c-2c1 | 0 | -2 |
| CN(C)CC(C)(C)CN1CC2(CCCC2)Oc2ncccc2C1=O | -2 | 6 |
| Cc1cc(C)cc(NC(=O)CCN2C(=O)c3ccccc3C2=O)c1 | 8 | 7 |
| CN(NC(=O)C1CC=CCC1C(=O)N1CCN(c2ccccn2)CC1)c1ccccc1 (centres undefined) | -11 | -17 |

In another format: five of the compounds above
Order of results – NPYLR7 ag | NPYLR7 ag max-min
- CC(=O)c1cc(CC(=O)NCc2cc(=O)[nH]c(C(C)(C)C)n2)cs1
→ 12 | -2
- CN(NC(=O)C1CC=CCC1C(=O)N1CCN(c2ccccn2)CC1)c1ccccc1 (centres undefined)
→ -11 | -17
- COCCn1cc(C(=O)N2CCN(C(=O)C3CCCCC3)CC2)c2nn(-c3ccccc3)c(=O)c-2c1
→ 0 | -2
- CN(C)CC(C)(C)CN1CC2(CCCC2)Oc2ncccc2C1=O
→ -2 | 6
- O=C(NC1CC1)C(C1CCCC1)N1CCN(C(=O)c2cccc(F)c2)CC1 (centres undefined)
→ -3 | -2

The listing continues:
| SMILES | NPYLR7 ag | NPYLR7 ag max-min |
| --- | --- | --- |
| Cc1nn(C)cc1CN(C)Cc1cnc(S(C)(=O)=O)n1Cc1ccccc1F | -2 | -8 |
| O=C(Oc1cccc2cccnc12)c1ccco1 | -5 | -9 |
| C=CCN1C(=O)CC(N2CCOCC2)C1=O (centres undefined) | 3 | 1 |
| CC1(C(=O)NS(=O)(=O)c2ccccc2Cl)CCN1C(=O)C/C=C/c1ccccc1 (centres undefined) | 1 | 1 |
| CCCCC1N2CC3([N+](=O)[O-])CN1CC([N+](=O)[O-])(C2)C3(C)C (centres undefined) | 12 | 3 |
| CCCSc1ncccc1C(=O)N(CC(C)C)CC(C)C | -10 | -15 |
| NC(=O)CCN(C(=O)CN1CCCc2c(F)ccc(F)c21)c1ccc(F)cc1 | -3 | -8 |
| CCCCCC(=O)Nc1ccc(C2SCC(=O)N2c2ccc(F)cc2F)cc1 (centres undefined) | 11 | 16 |
| COC(=O)C1CCN(C(=O)COc2ccc3ccccc3c2Br)CC1 | 0 | 4 |
| CN(CC1CCN(CCc2ccc(Cl)cc2)CC1)C(=O)Cn1c(=O)oc2ccccc21 | 3 | 1 |
| Fc1ccc(CNc2nc3c(-c4ccccc4)nnn3c3ccccc23)cc1 | -6 | -12 |
| CCC(c1ncnn1C)n1ccnc1-c1ccsc1 (centres undefined) | -6 | -10 |

A stretch from further up, for reference:
| SMILES | NPYLR7 ag | NPYLR7 ag max-min |
| --- | --- | --- |
| CN(CC1CCN(CCc2ccc(Cl)cc2)CC1)C(=O)Cn1c(=O)oc2ccccc21 | 3 | 1 |
| Fc1ccc(CNc2nc3c(-c4ccccc4)nnn3c3ccccc23)cc1 | -6 | -12 |
| CCC(c1ncnn1C)n1ccnc1-c1ccsc1 (centres undefined) | -6 | -10 |

(list continues)
| SMILES | NPYLR7 ag | NPYLR7 ag max-min |
| --- | --- | --- |
| COCCN(Cc1cccc(OC)c1)Cc1cccn1Cc1cccc(OC)c1 | 1 | 6 |
| CC(=O)c1cc(C(=O)N(Cc2ccsc2)CC(C)C)c(=O)[nH]c1C | -8 | -7 |
| Cc1ccc(Oc2cc(N3CCN(CC(=O)N4CCCC4)CC3)ncn2)cc1 | 3 | 2 |
| CSc1ccc(COc2coc(CN3CCCN(C(=O)C(OC(C)=O)c4ccccc4)CC3)cc2=O)cc1 (centres undefined) | -2 | 4 |
| COc1ccc(NCc2cnc(N3CCCC3)nc2)cc1 | -2 | -1 |
| CN(C)S(=O)(=O)c1cccc(NC(=O)CN2CCCc3cc(F)cc(F)c32)c1 | 2 | -5 |
| COc1cc(Nc2ccc(NC(=O)Nc3ccccc3OC)cc2)nc(C)n1 | 12 | 4 |
| COc1ccc(OC)c(NS(C)(=O)=O)c1 | 5 | 3 |
| COc1ccc(-n2c(CCC(=O)NCc3c(F)cccc3Cl)ccc2-c2ccc(Cl)cc2)cc1 | -3 | -4 |
| Cc1cccc(NC2SC(=O)N(CC(C)C)C2=O)c1 (centres undefined) | 12 | 9 |
| O=c1c2c3c(sc2ncn1CCCn1ncc2ccccc21)CNCC3 | -5 | -9 |
| COc1cc2sc(C)[n+](CCCS(=O)(=O)O)c2c2sccc12 | -5 | -13 |
| COc1cc2c(cc1OC)C(CNS(=O)(=O)c1ccc(Cl)cc1)N(Cc1cccc(C)c1)CC2 (centres undefined) | 1 | 6 |
| CC(=O)N1CCN(C(C(=O)N2CCCC2)C2CCCC2)CC1 (centres undefined) | -7 | -3 |
| CCN(CC)C(=O)N1CCN(CN2C(=O)CN(c3ccccc3)C2=O)CC1 | 11 | 8 |
| Brc1ccc(N=c2oc3ccccc3cc2-c2nc3ccccc3[nH]2)cc1 | -4 | -10 |
| COc1cccc(CNC(=O)c2ccnc(N(C)C)c2)c1 | -8 | -8 |
| COc1ccc(C(=O)NCC2CCN(c3nc(Cc4ccc(Cl)cc4)ns3)CC2)cc1 | 12 | 8 |
| O=C(C1=C(O)C(=O)N(Cc2cccnc2)C1c1ccc(F)cc1)c1cccs1 (centres undefined) | -1 | 0 |
| Cc1cc(C)n(CCC2CC(=O)Nc3c2ccc(N2CCCC2)c3C)n1 (centres undefined) | 15&-6 | 7&-9 |
| Cc1ccc(C2c3ccccc3CCN2C(=O)Cc2cccs2)cc1 (centres undefined) | 8 | 19 |
| CN(C)c1ccc(-c2nc3c(C(=O)NCCc4cnc[nH]4)cccc3[nH]2)cc1 | 0 | 18 |
| O=C(Cc1ccsc1)N1CCOC(COCc2c(Cl)cccc2Cl)C1 (centres undefined) | 24 | 25 |
| Cc1ccc(C)c(OCCCN2CCc3ccccc3C2)c1 | 3 | 4 |
| COc1cc(-c2nc(CN3CCCC3c3ccccc3OC)c(C)o2)ccc1F (centres undefined) | 3 | -2 |
| Cc1ccc(-n2c(CNC(=O)/C=C/c3ccccc3)nnc2SCc2cccc(C)c2)cc1 | 16 | 22 |
| O=C(Nc1ccc(N2CCCN(Cc3ccc4c(c3)OCO4)C2=O)cc1)OCc1ccccc1 | 7 | 4 |
| CCOC(=O)N1CCN(CC(=O)N2N=C(c3ccccc3F)CC2c2ccc(C)cc2C)CC1 (centres undefined) | 18 | 18 |
| NC1CCN(c2ccccc2C(=O)NCc2ccccc2F)CC1 | -10 | -3 |
| Brc1cccnc1Nc1ccccc1 | -5 | -5 |
| O=S(=O)(c1ccc2c(c1)CCN2)N1CCCCC1 | -1 | -4 |
| Cn1nc(C(=O)Nc2cccc3ccccc23)ccc1=O | -13 | -15 |
| CN(Cc1ccco1)C(=O)COc1ccc(Cl)c2ccccc12 | 2 | 1 |
| Cc1ccc(CNC(=O)c2cc(=O)c(OCc3ccccc3)cn2C)cc1 | 2 | -2 |
| O=C(Nc1cccnn1)c1ccc(Oc2ccccc2)o1 | 4 | 5 |
| COc1cccc(/C=C2\Oc3cc(OC(=O)c4ccc5c(c4)OCO5)ccc3C2=O)c1OC | -3 | -7 |
| CC(=O)N1CCN(CCC(=O)Nc2cccc(C)c2C)CC1 | 2 | 1 |
| Oc1c(C=C2N=c3ccccc3=N2)sc(=S)n1Nc1ccccc1 | 2 | 6 |
| CN(CCC1(O)CCCC1)C(=O)c1cc2cc(F)ccc2[nH]1 | 4 | 1 |
| CCSc1nc(CC(=O)NCC2(CO)CCOCC2)cs1 | 27 | 8 |
| O=c1[nH]c(=O)n(-c2ccccc2)c(O)c1C=NCCO | 5 | 4 |
| Cc1cc2nnc(SCC3CCOCO3)n2c2ccccc12 (centres undefined) | 3 | 1 |
| CC(C)CCn1c(CN2CCCCC2)nc2c1c(=O)n(C)c(=O)n2C | -1 | -3 |
| O=C(Nc1ccnc2ccc(Cl)cc12)c1ccncc1 | -9 | -11 |
| CC1CN(C(=O)C2CC(=O)Nc3ccccc32)CC1N1CCOCC1 (centres undefined) | 1 | -3 |
| COc1cccc(C=CC(=O)c2ccc(N3CCCC3=O)cc2)c1OC | 0 | 9 |
| O=C(NCCN1CCOCC1)c1c(O)nc2sccn2c1=O | -1 | 1 |
| C=CCSc1nnc(-c2ccc(OC)c(OC)c2)n1-c1ccc(OC)cc1 | 18 | 26 |
| COc1ccccc1NC(=O)N(Cc1ccc(C(F)(F)F)cc1)CC1CC(c2ccccc2Cl)=NO1 (centres undefined) | -6 | 3 |
| COc1cccc2c1OCC(CN1CCN(Cc3ccccc3F)C(CCO)C1)=C2 (centres undefined) | 9 | 0 |
| CN(CCCn1cccn1)Cc1ccsc1 | 2 | 2 |
| CC(Cc1cn(CCc2nnc(N)s2)nn1)c1ccccc1 (centres undefined) | 10&6 | 8&3 |
| CCOC(=O)c1ccc(N=C2SC(C(=O)Nc3ccc(C)c(Cl)c3)CC(=O)N2C)cc1 (centres undefined) | 4 | 4 |
| CCn1c(C)c(C(=O)CN(Cc2ccco2)C(=O)c2cccc(Br)c2)c(C)c1C(=O)OC | -16 | -11 |
| COc1ccc2c(c1)NC(=O)C2OC(=O)Cc1ccccc1C (centres undefined) | 1 | 15 |
| COc1ccc(C(=O)Nc2ccc(-n3nc(OC)nc3-c3ccccc3C)cc2)c(OC)c1 | 24 | 23 |
| CC(=O)c1c(C)oc(C)c1CSCc1ccc(C(=O)O)o1 | 7 | 2 |
| COc1ccc(OCCNC(=O)C2(C)CCN2Cc2c(F)cccc2F)cc1 (centres undefined) | 2 | -2 |
| NC(=O)c1cccc(NC(=O)c2cc3ccccc3o2)c1 | 8 | 15 |
| COc1ccc(NC(=O)CN2C(=O)C(c3ccc(C(C)(C)C)cc3)=NC2(C)C)cc1 | 0 | -1 |

Following part:
| SMILES | NPYLR7 ag | NPYLR7 ag max-min |
| --- | --- | --- |
| COc1cccc(N2CC(NC(=O)N3CCC(O)CC3)CC2=O)c1 (centres undefined) | 10 | 7 |
| N#Cc1ccc(NN2C(=O)c3ccccc3C2=O)c([N+](=O)[O-])c1 | -3 | -10 |
| FC(F)(F)c1cccc(C=NNc2nc3ccccc3o2)c1 | -9 | -12 |
| COc1ccc(C2CCCN2C(=O)c2cn3c(C)cccc3n2)cc1OC (centres undefined) | 2 | 1 |
| COc1ccc(CN(C)S(=O)(=O)Cc2cc(Cl)cc(Cl)c2)cc1F | 0 | 33 |
| O=S(=O)(Cc1ccc(Cl)cc1)c1ccc(N2CCN(c3ccccc3)CC2)nn1 | -3 | -9 |
| COCc1nc(NC(C)c2nncn2C(C)C)c2cnn(C)c2n1 (centres undefined) | 27 | 12 |
| CC1=NC2=C(C(=O)CCC2)C(c2ccc([N+](=O)[O-])cc2)C1C(=O)OCCOc1ccccc1 (centres undefined) | -2 | -4 |
| Cc1cc(C)nc(NN=Cc2ccncc2)n1 | 5 | 1 |
| Cc1cccc2nc(C(=O)N3CCC4(CN(C)C(=O)O4)C3)cn12 (centres undefined) | 10 | 5 |
| CCCCS(=O)(=O)N1CCN(c2nc3ccccc3nc2-c2ccccc2)CC1 | 24 | 27 |
| COc1ccc(-n2ccc3c(cnc4nc(SC)nn43)c2=O)cc1 | 5 | 4 |
| Cc1sc2nc(SCC(=O)Nc3sc4c(c3C#N)CCCC4)n(C)c(=O)c2c1C | 0 | -1 |
| CCOC(=O)c1cc(-c2cccc(NC(=O)COc3ccccc3)c2)n(-c2cccc(C)c2)n1 | 14 | 10 |
| CC(C)C(=O)N1CCN(c2ccc(Cl)cc2)C(=O)C1C (centres undefined) | 0 | 8 |
| CC(c1ccccc1)N(C)C(=O)CSc1nc(O)cc(=O)n1-c1ccc(Cl)cc1 (centres undefined) | 3 | 2 |
| O=C(CC(c1ccccc1)c1cn(Cc2ccccc2)c2ccc([N+](=O)[O-])cc12)N1CCc2ccccc2C1 (centres undefined) | 3 | 6 |
| Cc1ccc(CN(CCc2ccccc2)C(=O)CN(Cc2ccc(C#N)cc2)CC2CCCO2)o1 (centres undefined) | 15 | 19 |
| Cc1cc(NC(=O)C(C)Sc2nc3cc(Cl)ccc3n2C)no1 (centres undefined) | 1 | 3 |
| O=C(C1CCCN1C(=O)NCC(F)(F)F)N1CCSCC1 (centres undefined) | -1 | 17 |
| O=C(c1ccccc1F)N(CCN1CCOCC1)Cc1nccn1Cc1cccc(Cl)c1 | 6 | 16 |
| COc1ccc(-n2nnc3c(=O)n(Cc4ccc(C(F)(F)F)cc4)cnc32)cc1 | 7 | 11 |
| Cc1ccc(C(=O)Cn2nc(C)c([N+](=O)[O-])c2C)s1 | 10 | 12 |
| CN1CC(=O)Nc2cc(S(=O)(=O)N(C)C)ccc21 | 5 | 2 |
| Cc1noc(C)c1S(=O)(=O)NCc1cnn2ccccc12 | 0 | -2 |
| COc1ccccc1Cc1nc2c(c(N3CCOCC3)n1)CN(C(=O)Nc1ccccc1C(F)(F)F)CC2 | -10 | -1 |
| O=C(O)c1c[nH]c2ccc(S(=O)(=O)N3CCCc4ccccc43)cc2c1=O | 1 | 0 |
| CCN1CCCC1CNC(=O)CCC1CCN(CC2=Cc3cccc(OC)c3OC2)CC1 (centres undefined) | 2 | -1 |
| Cc1ccc(-c2c(C)nn3c(NCc4cccnc4)cc(C)nc23)cc1 | 5 | 4 |

Grouped by structure, the compounds so far containing a COOH group (two)
| SMILES | NPYLR7 ag | NPYLR7 ag max-min |
| --- | --- | --- |
| CC(=O)c1c(C)oc(C)c1CSCc1ccc(C(=O)O)o1 | 7 | 2 |
| O=C(O)c1c[nH]c2ccc(S(=O)(=O)N3CCCc4ccccc43)cc2c1=O | 1 | 0 |
